Rango complex inh: qHTS Assay for Inhibitors of Rango (Ran-regulated importin-beta cargo) - Importin beta complex formation. Potency, µM (titrated, usually from 92.2 µM), for inactives: at the top dose inhibition of complex formation. 340,000 compounds, 0.031% hits. Rango CFP/YFP FRET sensor + importin beta, 45 min; active = rising FRET ratio curve, often small or poorly fitted; inconclusive = mostly compound fluorescence or quenching in the first reads; inactive = flat curves in all reads;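 further: potency means the concentration at half of the fitted maximal effect; 0% = DMSO wells and 100% = buffer wells lacking importin beta; nearly all actives have a fitted effect of over 15% in size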
Target sequence (Q14974 whole entry, looked up): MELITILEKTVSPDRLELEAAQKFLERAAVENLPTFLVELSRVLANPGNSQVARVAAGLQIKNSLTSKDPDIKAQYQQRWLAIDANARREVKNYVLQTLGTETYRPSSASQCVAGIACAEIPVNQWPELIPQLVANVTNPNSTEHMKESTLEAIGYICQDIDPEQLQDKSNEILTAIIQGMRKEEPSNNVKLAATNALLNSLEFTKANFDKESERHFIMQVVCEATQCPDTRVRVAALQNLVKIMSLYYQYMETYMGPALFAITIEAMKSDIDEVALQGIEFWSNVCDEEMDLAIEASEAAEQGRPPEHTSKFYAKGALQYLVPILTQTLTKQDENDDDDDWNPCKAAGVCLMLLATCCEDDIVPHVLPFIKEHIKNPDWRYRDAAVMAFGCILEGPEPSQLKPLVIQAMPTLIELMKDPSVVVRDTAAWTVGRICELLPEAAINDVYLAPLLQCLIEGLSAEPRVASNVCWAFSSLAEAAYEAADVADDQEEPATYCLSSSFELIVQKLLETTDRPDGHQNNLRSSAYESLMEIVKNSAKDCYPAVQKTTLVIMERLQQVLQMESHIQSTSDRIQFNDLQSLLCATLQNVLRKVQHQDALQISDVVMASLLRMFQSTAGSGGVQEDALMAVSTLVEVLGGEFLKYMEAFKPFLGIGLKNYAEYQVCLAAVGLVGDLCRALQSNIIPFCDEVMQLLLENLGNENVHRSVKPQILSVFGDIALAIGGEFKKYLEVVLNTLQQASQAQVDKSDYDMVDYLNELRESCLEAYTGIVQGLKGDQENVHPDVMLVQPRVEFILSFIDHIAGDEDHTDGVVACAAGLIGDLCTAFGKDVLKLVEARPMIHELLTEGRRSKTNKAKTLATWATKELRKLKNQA
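FRET biosensor Rango (snurportin 1 IBB between N-terminal EYFP and C-terminal Cerulean), 50 nM in PBS/1 mM DTT/0.02% Tween-20/0.1% BSA, preincubated 5 min RT with compound; 0.125 microM importin beta added, 45 min RT, CFP/YFP FRET ratio read.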
GLA inh pH 4.5: qHTS Assay for Inhibitors of Human alpha-Galactosidase at pH 4.5 | 230,000 tested, under 10 active | purified enzyme, 4-MU-alpha-Gal fluorescence, pH 4.5 | Alpha-galactosidase A (Homo sapiens), P06280 | activity change, negative = inhibition, % at 105 µM; inconclusive = small, poorly fitted or top-dose-only inhibition, or a rising curve; inactive = flat fitted curve, though single readings scatter; no compound was filed as active;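 further: 0% = full activity with enzyme and -100% = basal without enzyme; dose as in the result columns while the protocol names 77 µM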
miR-21 reporter: qHTS Assay for Modulators of miRNAs and/orActivators of miR-21; HeLa miR-21 FLuc reporter, luciferase, 48 h; Potency, µM (titrated, usually from 38.3 µM), without a hit: top-dose reporter change, positive = more light; 340,000 tested, under 10 active; AID 2288, 2010; active = well fitted rising curve with a large enough effect; inconclusive = small, poorly fitted or top-dose-only effect; inactive = no such curve, though single readings can be large or run the other way;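 further: % of control where 0% means no effect; miR-21 action dims this reporter so a rising signal means less miR-21 action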
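HeLa miR-21-FLuc reporter line, endogenous miR-21; 2000 cells/well in DMEM/10% FBS; compound titration up to ~40uM final, 48 h, 37 degree Celsius; luciferase detection reagent, 15 min lysis, CCD luminescence.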
Rango dissoc inh: qHTS Assay for Inhibitors of RanGTP induced Rango (Ran-regulated importin-beta cargo) - Importin beta complex dissociation | Snurportin-1 (Homo sapiens) + GTP-binding nuclear protein Ran (Homo sapiens) + Importin … | Biochemical FRET Rango-importin beta, RanGTP-induced dissociation | Potency, µM (series often up to 46.1 µM), inactives show top-dose activity change, negative = inhibition | 340,000 compounds, 0.071% hits; active means falling FRET ratio curve, often poorly fitted, with flat reads before Ran was added; inconclusive means other falling curves, or compound fluorescence or quenching; inactive means flat or rising ratio curve;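 further: potency means the concentration at half of the fitted maximal effect; % of control where 0% means no effect; nearly all actives have a fitted effect of over 45% in size; -100% = wells without RanGTP and RCC1; the record marks most hits as doubtful in a second field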
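Rango/importin beta premix (0.1/0.25 uM final), PBS + 1 mM DTT + 0.02% Tween-20 + 0.1% BSA; cpd 5 min RT; FRET pre-read; + RanGTP-RCC1 (0.6 uM Ran, 2 mM GTP, 0.2 uM RCC1); 45 min RT; FRET post-read, ex 430, em 486/530 nm.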
* = called active by the depositor; [ ] = another dose, or the depositor's remark.

What do the screens show for `O=[N+]([O-])c1ccccc1/C=C\C=N\N1CCN(c2ccccc2)CC1`?
Rango complex inh: 7.8%; GLA inh pH 4.5: 1; miR-21 reporter: -23%; Rango dissoc inh: 27%

How did COc1ccc(C(=O)NC2CCCCCC2)cc1OC1CCN(C(C)=O)CC1 do in these assays?
Rango complex inh: 0.4%; miR-21 reporter: -8%; Rango dissoc inh: 1%

How did CC(C)C(NC(=O)OC(C)(C)C)C(=O)NC(CCC(=O)OCc1ccccc1)C(N)=O (configuration not stated) do in these assays?
Rango complex inh: -4.0%; GLA inh pH 4.5: 3; miR-21 reporter: -2%; Rango dissoc inh: -7%

What do the screens show for `COc1cc(NC(=O)c2ccccc2)ccc1NC(=O)Cc1ccccc1`?
Rango complex inh: -1.3%; miR-21 reporter: -1%; Rango dissoc inh: 8%

What do the screens show for `Cc1ccc(-c2nn(C)c(=O)c3ccccc23)cc1CNC(=O)CSc1nc2ccccc2o1`?
Rango complex inh: -2.2%; GLA inh pH 4.5: 5; miR-21 reporter: 1%; Rango dissoc inh: 3%

How did Cc1cc(O)c(C=O)c2c1C(=O)Oc1c(CO)c(O)c3c(c1O2)C(O)OC3=O (configuration not stated) do in these assays?
Rango complex inh: inconclusive; GLA inh pH 4.5: 4; miR-21 reporter: -2%; Rango dissoc inh: -21%

How did Clc1ccccc1-c1ncnc2ccc(Br)cc12 do in these assays?
Rango complex inh: -2.2%; GLA inh pH 4.5: -1; miR-21 reporter: -17%; Rango dissoc inh: -12%

Results for Cc1cc(SCC(=O)c2cccc([N+](=O)[O-])c2)nc(=O)[nH]1 ?
Rango complex inh: -1.8%; miR-21 reporter: -49%; Rango dissoc inh: -13%

What do the screens show for `CC(=O)N1CCOc2ccc(S(=O)(=O)NC[C@H]3O[C@@H](n4ccc(=O)[nH]c4=O)[C@H](O)[C@@H]3O)cc21`?
Rango complex inh: -1.4%; Rango dissoc inh: 4%

Results for COc1ccc(C(=O)N(Cc2ccccc2)c2cccc(C)c2)c(OC)c1OC ?
Rango complex inh: -2.8%; miR-21 reporter: 2%; Rango dissoc inh: -1%

Results for COc1ccc(C(=O)C(C)N(C(=O)c2ccc(Cl)cc2Cl)N2C(=O)C3C4C=CC(C4)C3C2=O)cc1 (configuration not stated) ?
Rango complex inh: inconclusive; GLA inh pH 4.5: 4; miR-21 reporter: -5%; Rango dissoc inh: -9%

Results for CN(CCC1CCOCC1)C(=O)C1CCC(=O)N(CCc2ccc(Cl)cc2)C1 (configuration not stated) ?
Rango complex inh: -0.1%; miR-21 reporter: 4%; Rango dissoc inh: -7%

How did CN1C(C(=O)NCc2cccc(Br)c2)CC2Cn3c(nc4cc(Cl)c(Cl)cc43)C21 (configuration not stated) do in these assays?
Rango complex inh: inconclusive; GLA inh pH 4.5: 10; miR-21 reporter: -2%; Rango dissoc inh: inconclusive

Results for COc1ccc([C@H]2CC(=O)C=C(c3ccc(CO)cc3)C2)cc1 ?
Rango complex inh: 1.0%; Rango dissoc inh: 8%

Results for COc1ccc(NC(=S)N(CCCN2CCCC2)Cc2cccs2)cc1 ?
Rango complex inh: -2.4%; GLA inh pH 4.5: 2; miR-21 reporter: 2%; Rango dissoc inh: 8%

Results for Cc1ccc(-n2ncc3c(=O)n(CC(=O)N4CCN(C(=O)c5ccco5)CC4)cnc32)cc1 ?
Rango complex inh: -1.3%; Rango dissoc inh: 2%

How did O=C(NC(=S)Nc1sc2c(c1C(=O)O)CCCC2)c1ccccc1 do in these assays?
Rango complex inh: 1.7%; miR-21 reporter: -31%; Rango dissoc inh: 2%

Results for CN(C(=O)COC(=O)CNC(=O)c1sc2ccccc2c1Cl)C1CCS(=O)(=O)C1 (configuration not stated) ?
Rango complex inh: 2.1%; Rango dissoc inh: 3%

What do the screens show for `Cc1cc(C)n(-c2nc3ccccc3s2)n1`?
Rango complex inh: -1.3%; GLA inh pH 4.5: 0; miR-21 reporter: -25%; Rango dissoc inh: -12%

Results for COc1ccc(S(=O)(=O)N2CCCCCC2)cc1C(=O)N(C)CC(=O)Nc1ccccc1Br ?
Rango complex inh: 0.9%; Rango dissoc inh: 31%

Results for Cc1cccc(NC(=S)NNC(=S)NCc2ccccc2)c1 ?
Rango complex inh: -0.2%; GLA inh pH 4.5: -6; miR-21 reporter: -44%; Rango dissoc inh: 14%

Results for Cc1cc(C(=O)Nc2cccc(C)c2C)c2ccccc2n1 ?
Rango complex inh: 2.0%; miR-21 reporter: -1%; Rango dissoc inh: -7%

Results for O=C(CCn1cccn1)Nc1ccc2c(c1)OCCO2 ?
Rango complex inh: -3.1%; miR-21 reporter: -35%; Rango dissoc inh: 13%

What do the screens show for `CCOc1ccccc1C(=O)OCC(=O)Nc1cc(Cl)ccc1Oc1ccccc1`?
Rango complex inh: -1.0%; GLA inh pH 4.5: -6; miR-21 reporter: -10%; Rango dissoc inh: -8%

Results for CCN(CC)S(=O)(=O)c1cccc(C(=O)OCC(=O)NCCN2C(=O)CSC2=O)c1 ?
Rango complex inh: 4.9%; Rango dissoc inh: -4%

Results for CN(C)CCCn1c(=O)n(C2CCCCC2)c(=O)c2c3c(sc21)CCCCC3 ?
Rango complex inh: 3.9%; Rango dissoc inh: -8%

Results for CC1CC(C)(C)NC(=S)N1CCC(=O)N1c2ccccc2CC1C (configuration not stated) ?
Rango complex inh: -0.4%; GLA inh pH 4.5: -13; miR-21 reporter: 3%; Rango dissoc inh: 2%

How did CSc1nnc(Nc2ccccc2C)s1 do in these assays?
Rango complex inh: 3.3%; GLA inh pH 4.5: 3; miR-21 reporter: -37%; Rango dissoc inh: -5%

How did Cn1c(SCC(=O)O)nnc1-c1cccc(NC(=O)c2cccc3ccccc23)c1 do in these assays?
Rango complex inh: -1.6%; GLA inh pH 4.5: -3; miR-21 reporter: 0%; Rango dissoc inh: -12%

How did Cc1cccc(NS(=O)(=O)c2cc(NC(=O)CC(=O)c3ccc([N+](=O)[O-])cc3)ccc2C)c1 do in these assays?
GLA inh pH 4.5: 3; miR-21 reporter: -9%

What do the screens show for `CN(C)c1ccnc(N(Cc2ccccc2)Cc2ccccc2)c1C#N`?
Rango complex inh: -2.8%; GLA inh pH 4.5: 2; miR-21 reporter: -35%; Rango dissoc inh: 3%

How did Cc1ccc(C(=O)NCCN2CCNC2=O)cc1 do in these assays?
Rango complex inh: -0.3%; GLA inh pH 4.5: -3; miR-21 reporter: -40%; Rango dissoc inh: 1%

Results for COC(=O)C1=CN(Cc2ccc(OC)cc2)C=C(C(=O)OC)C1c1ccc(O)c(OC)c1 ?
Rango complex inh: inconclusive; miR-21 reporter: -6%; Rango dissoc inh: -15%

Results for CC(C)OC(=O)CSc1nnc(-c2ccco2)n1N ?
Rango complex inh: 3.9%; GLA inh pH 4.5: 1; miR-21 reporter: -3%; Rango dissoc inh: 1%

What do the screens show for `Cc1cc(Br)c(NC(=O)CSc2n[nH]c(N)n2)c(Br)c1`?
Rango complex inh: 11%; Rango dissoc inh: -12%

Results for COc1ccc(C(=O)CCc2ccccc2O)c(OC)c1 ?
Rango complex inh: 4.5%; miR-21 reporter: -60%; Rango dissoc inh: 4%

Results for O=C(NNC(=O)C12CC3CC(CC(Cl)(C3)C1)C2)c1ccncc1 ?
Rango complex inh: 3.6%; Rango dissoc inh: -6%

How did O=C(O)CC1(CC(=O)NCc2ccc(C(F)(F)F)cc2)CCCCC1 do in these assays?
Rango complex inh: 0.3%; GLA inh pH 4.5: -1; miR-21 reporter: -4%; Rango dissoc inh: -2%

How did CC(C)COC(=O)/C(C#N)=C/c1cn(Cc2ccccc2)c2ccccc12 do in these assays?
Rango complex inh: -0.8%; GLA inh pH 4.5: -2; miR-21 reporter: 1%; Rango dissoc inh: -1%

Results for CC1=C/C(=N\N=C2\NC(=O)C(CC(=O)Nc3ccccc3F)S2)CC(C)(C)C1 (configuration not stated) ?
Rango complex inh: 4.6%; GLA inh pH 4.5: 1; miR-21 reporter: 9%; Rango dissoc inh: 0%

Molecules listed so far containing a furan ring, fused or not, in the order listed:
Results for Cc1ccc(-n2ncc3c(=O)n(CC(=O)N4CCN(C(=O)c5ccco5)CC4)cnc32)cc1 ?
Rango complex inh: -1.3%; Rango dissoc inh: 2%

Results for CC(C)OC(=O)CSc1nnc(-c2ccco2)n1N ?
Rango complex inh: 3.9%; GLA inh pH 4.5: 1; miR-21 reporter: -3%; Rango dissoc inh: 1%

Of the compounds above, these contain a cyano group.
What do the screens show for `CN(C)c1ccnc(N(Cc2ccccc2)Cc2ccccc2)c1C#N`?
Rango complex inh: -2.8%; GLA inh pH 4.5: 2; miR-21 reporter: -35%; Rango dissoc inh: 3%

How did CC(C)COC(=O)/C(C#N)=C/c1cn(Cc2ccccc2)c2ccccc12 do in these assays?
Rango complex inh: -0.8%; GLA inh pH 4.5: -2; miR-21 reporter: 1%; Rango dissoc inh: -1%

(list continues)
What do the screens show for `COc1ccc(NC(=O)Nc2cccc([N+](=O)[O-])c2)cc1Cl`?
Rango complex inh: -1.9%; GLA inh pH 4.5: 0; miR-21 reporter: 27%; Rango dissoc inh: -1%

How did O=C(CSc1nnc2c(Cl)cc(C(F)(F)F)cn12)NCc1ccc(F)cc1 do in these assays?
Rango complex inh: -2.8%; GLA inh pH 4.5: 0; miR-21 reporter: 0%; Rango dissoc inh: -15%

Results for COc1ccc(C(=O)/C=C/c2ccc(O)cc2)c(O)c1CC=C(C)C ?
Rango complex inh: 2.8%; GLA inh pH 4.5: -27; miR-21 reporter: -10%; Rango dissoc inh: 2%

Results for Cn1ccc(NC(=O)c2ccc([N+](=O)[O-])cc2)n1 ?
Rango complex inh: 1.0%; Rango dissoc inh: 1%

How did CC1(C)Cc2ccccc2C2=NNC(=O)C2=N1 do in these assays?
Rango complex inh: 1.4%; GLA inh pH 4.5: 7; miR-21 reporter: inconclusive; Rango dissoc inh: 0%

What do the screens show for `COc1cc(CN2CC(C)OC(C)C2)cc(OC)c1` (configuration not stated)?
Rango complex inh: 1.5%; Rango dissoc inh: 1%

What do the screens show for `Cc1cc2c(c(SCC(=O)Nc3ccc(C)c(C)c3)n1)C(=O)OC2`?
Rango complex inh: -0.3%; GLA inh pH 4.5: 3[21.1 µM]; miR-21 reporter: 3%; Rango dissoc inh: 0%

Results for O=c1cc(O)c2sc3nc4c(c(C(F)(F)F)c3c2[nH]1)CCCCC4 ?
Rango complex inh: inconclusive; GLA inh pH 4.5: 2; miR-21 reporter: -1%; Rango dissoc inh: inconclusive

What do the screens show for `CCc1ccc(NC(=O)C(C)OC(=O)Cc2cc(OC)c(OC)c(OC)c2)cc1` (configuration not stated)?
Rango complex inh: -1.4%; Rango dissoc inh: 20%

Results for Cc1ccc(OCC(=O)Nc2ccc3c(c2)nc(CCN2CCN(C)CC2)n3C)cc1 ?
Rango complex inh: 5.8%; GLA inh pH 4.5: -1; miR-21 reporter: -4%; Rango dissoc inh: -6%

Results for O=C(C[N+]1(CC#Cc2ccccc2)CCCCC1)c1ccccc1 ?
Rango complex inh: 0.3%; GLA inh pH 4.5: -11; miR-21 reporter: 1%; Rango dissoc inh: -11%

What do the screens show for `Cc1cc(C(=O)CN(Cc2ccc(F)cc2)S(=O)(=O)c2ccc3c(c2)OCCO3)c(C)n1C`?
Rango complex inh: 1.8%; GLA inh pH 4.5: -18; miR-21 reporter: 17%; Rango dissoc inh: 0%

How did COc1ccc(NC(=O)C2CCN(C(=O)NCc3ccccc3)CC2)cc1 do in these assays?
Rango complex inh: -1.5%; GLA inh pH 4.5: 4; miR-21 reporter: 0%; Rango dissoc inh: -8%

How did CCOc1ccc(-c2cccc(NS(=O)(=O)c3cc([N+](=O)[O-])ccc3C)c2)nn1 do in these assays?
Rango complex inh: 0.9%; Rango dissoc inh: -6%

Screens from PubChem.

Not all compounds are listed (hit frequency here may not be typical).
